Compound activity (PubChem BioAssay)
RGS16-Gao: modulators of RGS16 binding to Galphao, primary screen, biochemical, human proteins, multiplexed bead flow cytometry; Regulator of G-protein signaling 16 (Homo sapiens) + Guanine nucleotide-binding protein …; bead-based flow cytometry RGS16-Galphao binding, fluorescence; actives lie on both sides; binding response (% of control), % at 10 µM; 220,000 tested, 0.38% active;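 active = below 25% or above 175%, edge rows of some plates excepted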;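 also: Galphao activated by GDP with aluminum fluoride before binding; 100% = wells without compound and 0% = beads without RGS; some results beyond the cut were filed as inactive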
Target sequence (O15492 whole entry, looked up): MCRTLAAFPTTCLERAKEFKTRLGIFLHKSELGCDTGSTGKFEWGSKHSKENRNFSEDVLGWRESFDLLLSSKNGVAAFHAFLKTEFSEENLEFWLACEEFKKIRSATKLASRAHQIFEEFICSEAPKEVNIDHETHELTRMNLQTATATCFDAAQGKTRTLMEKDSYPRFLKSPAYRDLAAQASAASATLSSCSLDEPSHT
Target sequence (P09471 whole entry, looked up): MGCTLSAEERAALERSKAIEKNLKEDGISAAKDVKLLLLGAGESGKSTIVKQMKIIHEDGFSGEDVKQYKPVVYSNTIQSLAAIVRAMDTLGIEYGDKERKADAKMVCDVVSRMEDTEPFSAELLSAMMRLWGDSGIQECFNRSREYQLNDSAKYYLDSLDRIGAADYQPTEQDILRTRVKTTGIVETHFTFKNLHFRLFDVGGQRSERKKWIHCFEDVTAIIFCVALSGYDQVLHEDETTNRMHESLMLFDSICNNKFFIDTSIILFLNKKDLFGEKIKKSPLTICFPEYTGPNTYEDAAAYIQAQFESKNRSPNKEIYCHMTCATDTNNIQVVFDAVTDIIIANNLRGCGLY
Insulin prom inh: inhibitors of insulin promoter-driven GFP, primary screen, imaging, TRM-6 cells (human fetal islet line), eGFP reporter, cell count; 130,000 tested, 0.9% active; inhibition, % at 2 µM; reporter expression induced with tamoxifen;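 active = inhibition above the mean plus 3 SD, with well images judged a real hit on visual review, cut at about 60% in these data, passing the limit was not always enough; inconclusive = inhibition over the cutoff but images rejected on review; inactive = inhibition not above the cutoff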
GALR2 ag: GALR2 receptor agonists, primary screen, cell-based; GALR2-expressing cells, agonist activation read-out; activation, %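 (tested at 5 µM)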; AID 803, 2007; Galanin receptor type 2 (Homo sapiens), O43603; 140,000 tested, 0.48% active;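 active = above mean plus 3 SD of all compounds, about 5% in these data, not always enough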;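 also: 0% = vehicle buffer wells and 100% = reference agonist at full effect; tested in CHO reporter cells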
Target sequence (O43603 whole entry, looked up): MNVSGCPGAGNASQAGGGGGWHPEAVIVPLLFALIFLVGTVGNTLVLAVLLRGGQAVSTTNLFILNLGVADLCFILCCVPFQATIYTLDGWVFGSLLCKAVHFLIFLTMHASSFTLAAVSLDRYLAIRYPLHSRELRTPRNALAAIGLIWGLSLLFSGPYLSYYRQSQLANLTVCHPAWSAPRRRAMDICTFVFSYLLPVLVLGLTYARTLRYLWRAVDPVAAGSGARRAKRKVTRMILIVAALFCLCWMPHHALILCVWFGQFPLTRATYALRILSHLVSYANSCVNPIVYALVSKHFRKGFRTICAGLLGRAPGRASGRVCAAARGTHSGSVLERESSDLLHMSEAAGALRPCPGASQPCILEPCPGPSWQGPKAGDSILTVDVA
PKD1 kinase inh: inhibitors of human PKD1 kinase, biochemical, fluorescence polarization; inhibition, %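 (about 10 µM by stock and volumes)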; 200,000 tested, 0.056% active; PKD1 kinase fluorescence polarization assay; Serine/threonine-protein kinase D1 (Homo sapiens), Q15139;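 active = inhibition of 50% or more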;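 also: controls were vehicle for no effect and a reference inhibitor for full effect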
HSV augment: enhancers of HSV replication in host cells, fold increase, host cell viability | HSV replication augmentation in cells | maximum fold increase | 220,000 tested, 0.005% active | AID 1956, 2009;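 active = peak rise of 1.5-fold or more in the series; inconclusive = self-fluorescent or not available for retest; tested in PC3 cells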;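 also: first round at 10 µM; read as green reporter fluorescence; hits show the peak of a series up to 25 µM; 1 = signal of infected wells without compound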
Insulin prom inh cell count: also measured in Insulin prom inh; calls as there; normalized cell count, %; measured here: cell count, toxicity; reference of the scale not given here;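 cells exposed to compound for 48 h; stained nuclei by imaging scaled within each plate; lower means fewer cells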
HSV augment primary fold: recorded beside HSV augment, whose call it bears; fold increase; compound at 10 µM; measured here: primary screen fold increase 10 uM; tested in PC3 cells;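 GFP signal in the first replicate; 1 = infected wells without compound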
The depositor's hits bear a star; i = inactive; ? = inconclusive; . = no result given. Outcome played no part in choosing rows; overall some 1.2% were active at least once.

Start of the data: the first 2 records as a preview:
Second line of a record: PKD1 kinase inh	HSV augment primary fold	Insulin prom inh	RGS16-Gao	HSV augment	Insulin prom inh cell count	GALR2 ag
OCn1ncn(-c2ccccc2)c1=S
    1	0.89	-107	33	i	80	-2.5
CC(=O)Nc1cccc(C(=O)/C=C/c2cccs2)c1
    1	0.84	23	27	i	80	-1.1

The list itself, from the first entry:
Second line of a record: PKD1 kinase inh	HSV augment primary fold	Insulin prom inh	RGS16-Gao	HSV augment	Insulin prom inh cell count	GALR2 ag
OCn1ncn(-c2ccccc2)c1=S
    1	0.89	-107	33	i	80	-2.5
CC(=O)Nc1cccc(C(=O)/C=C/c2cccs2)c1
    1	0.84	23	27	i	80	-1.1
Cc1cccc(C)c1NC(=O)C/C(N)=N/O
    -2	0.96	-17	100	i	84	-2.7
CC(C)OP(=O)(OC(C)C)/C(C=O)=N\Nc1ccc([N+](=O)[O-])cc1
    .	1	.	99	i	.	.
CC(=O)N1CCN(C(=O)c2ccc(-n3c(C)ccc3C)cc2)CC1
    -12	1.1	.	77	i	.	-1.8
O=C(CN1C(=O)C2CC=CCC2C1=O)Nc1nnc(SCc2c(Cl)cccc2Cl)s1 (stereo not given)
    -4	0.83	42	93	i	102	-2.7
CCc1nc(-c2cc3ccc(C)cc3[nH]c2=O)no1
    -8	0.86	0	124	i	228	-0.8
CC(=O)N1CCc2cc(S(=O)(=O)NC(CC(C)C)C(=O)Nc3ccc4c(c3)OCCO4)ccc21 (stereo not given)
    -11	0.91	.	100	i	.	-1.1
O=C(COn1nnc2ccc(S(=O)(=O)N3CCOCC3)cc21)Nc1c(F)c(F)c(F)c(F)c1F
    -6	0.91	.	111	i	.	.
O=C(CCOc1ccccc1)NCc1ccccc1
    6	0.86	-431	98	i	75	-1.6
CC(C)CN1C(=O)NC(NS(=O)(=O)c2ccc(N)cc2)(C(F)(F)F)C1=O (stereo not given)
    -6	0.9	24	109	i	86	-1.6
CCc1nnc(NC(=O)c2ccc(S(=O)(=O)N3CCCc4ccccc43)cc2)o1
    -4	1.1	0	101	i	86	1.1
Cc1cc(NC(=O)c2ccc(C)s2)n(-c2nc3ccccc3[nH]2)n1
    -9	0.99	-233	0.3*	i	27	-1.0
COc1ccc2c(c1)c(=O)cc(C)n2CC(=O)NCc1ccco1
    -14	1	.	101	i	.	-1.0
Cc1ccc(NC(=O)C(=O)NCCN2CCN(S(C)(=O)=O)CC2)cc1
    1	0.91	37	105	i	90	.
O=C(NCCc1cccs1)C1CC(c2cccc([N+](=O)[O-])c2)=NO1 (stereo not given)
    6	1.4	.	103	i	.	0.2
NC(=O)C1=C[C@@H](c2ccc(C(F)(F)F)cc2)C[C@@H](OCCCCO)O1
    0	1	.	107	i	.	.
CC(C)Cc1ccc(C#N)c(SCC(N)=O)n1
    4	0.81	.	106	i	.	-1.6
COc1ccc(C2c3ccc(O)cc3Oc3ncn(Cc4ccco4)c(=N)c32)cc1 (stereo not given)
    .	.	.	98	?	.	.
CCCS(=O)(=O)Nc1c(C(=O)O)[nH]c2ccccc12
    -8	0.95	-37	102	i	79	-1.4
Cc1ccc(C2CCN(C(=S)Nc3cccc(Cl)c3)C2)cc1 (stereo not given)
    0	1.1	.	97	i	.	.
Fc1ccc(CSc2ncnc3sc4c(c23)CCCC4)cc1
    -9	0.76	24	105	i	88	-0.4
COc1ccc(/C(O)=C2/C(=O)C(=O)N(Cc3cccnc3)C2c2ccco2)cc1OC (stereo not given)
    -14	1	29	146	i	91	-2.0
Cc1cc(/C=N/NC(=O)C(O)(c2ccccc2)c2ccccc2)c(C)n1-c1ccccc1
    -2	0.96	-7	99	i	123	-1.1
CCOC(=O)c1c(N)sc2c1CCC(C)C2 (stereo not given)
    3	0.91	.	96	i	.	-1.4
O=S(=O)(Cc1ccccc1)NCc1cccnc1
    -2	0.93	-222	89	i	69	0.5
O=C(CS(=O)(=O)Cc1ccccc1)Nc1nc2ccccc2s1
    -7	0.96	33	102	i	45	-0.3
COc1ccc(S(=O)(=O)N2CCCC(C(=O)NCc3ccncc3)C2)cc1 (stereo not given)
    -11	0.86	31	100	i	118	-1.7
O=C1Nc2ccccc2/C1=N/N=C/c1ccc(-c2ccc([N+](=O)[O-])cc2)o1
    -1	0.96	-11	92	i	71	.
O=C(CCN1CCCCC1)NNC(=S)NC(=O)c1ccc(Br)cc1
    -6	1.1	13	117	i	57	.
Cc1cc(C(=O)COC(=O)c2ccccc2O)c(C)n1Cc1cccs1
    9	1	3	97	i	63	-3.0
O=C(c1ccc(S(=O)(=O)c2cccc(Cl)c2)c([N+](=O)[O-])c1)N1CCN(c2ccccn2)CC1
    0	0.67	0	97	i	114	.
CCn1c(SCC(=O)Nc2nc(-c3ccccc3)cs2)nc2c1c(=O)n(C)c(=O)n2C
    5	0.76	.	101	i	.	-1.4
CCOc1ccccc1N(CC(=O)NC1CCCC1)C(=O)CCCC(=O)Nc1ccccn1
    -5	0.94	27	101	i	68	2.1
CCOC(=O)C1CCN(C(=O)c2cc(OCC)c(OCC)c(OCC)c2)CC1
    -1	.	-71	95	.	83	-1.3
CCOC(=O)C1CCCN(C(=O)Nc2c(-c3ccccc3)noc2C)C1 (stereo not given)
    .	1	.	99	i	.	.
Cn1nc(C(F)(F)F)c(C#N)c1N1CCN(c2ccc(F)cc2)CC1
    10	0.8	-7	110	i	110	-1.9
Cc1nnc(SCC(=O)N(CC(C)C)c2c(N)n(CC(C)C)c(=O)[nH]c2=O)n1-c1ccccc1
    -3	0.99	43	106	i	61	.
N#CCC(=O)N/N=C/c1coc2ccccc2c1=O
    .	1	.	100	i	.	.
CCCCCCC#Cc1ccc2c(c1)COc1c3ccccc3nn1-2
    .	0.91	.	96	i	.	.
COc1ccc(N2CC(C)Cn3c2nc2c3c(=O)n(Cc3ccccc3)c(=O)n2C)c(OC)c1 (stereo not given)
    -5	0.92	33	104	i	49	.
C=CCOC(=O)C1=C(C)NC(C)=C(C(=O)OCC=C)C1/C=C/c1ccccc1
    9	0.86	.	105	i	.	3.6
N#Cc1cc(C(=O)c2ccccc2O)cn(-c2nccs2)c1=O
    -6	.	-15	22	.	107	-2.6
COc1cc(/C=N/NC(=O)c2ccc(Cn3cc([N+](=O)[O-])cn3)o2)cc(Br)c1O
    -1	1	.	99	i	.	.
CCOC(=O)c1c(CN2CCC(C)CC2)n(C)c2cc(Br)c(OC)cc12
    .	0.92	.	100	i	.	.
COCc1c(Br)c(C)nc(OCC(=O)N/N=C/c2cc(C)n(-c3ccc([N+](=O)[O-])cc3)c2C)c1C#N
    -13	0.99	.	105	i	.	-1.6
CC(C)(C)c1cc(Cc2ccccc2)[nH]n1
    -9	0.91	-41	98	i	93	-0.4
CCCC(=O)N1CCN(c2ccc(NC(=S)NC(=O)c3cccc(C)c3)cc2)CC1
    9	0.95	.	104	i	.	.
CCCCCOC(=O)Cc1c(C)nc(-c2ccccc2)[nH]c1=O
    -2	0.95	14	99	i	143	-0.7
COc1cccc(C(=O)NCC(=O)OCc2ccc(F)cc2Cl)c1
    1	0.81	-18	104	i	109	-1.2

Entries of single compounds as entered above. Order of screens: PKD1 kinase inh	HSV augment primary fold	Insulin prom inh	RGS16-Gao	HSV augment	Insulin prom inh cell count	GALR2 ag
Record of `CCOC(=O)c1c(CN2CCC(C)CC2)n(C)c2cc(Br)c(OC)cc12` = .	0.92	.	100	i	.	.
Record of `C=CCOC(=O)C1=C(C)NC(C)=C(C(=O)OCC=C)C1/C=C/c1ccccc1` = 9	0.86	.	105	i	.	3.6

Three entries from above, with tabs:
Compound	PKD1 kinase inh	HSV augment primary fold	Insulin prom inh	RGS16-Gao	HSV augment	Insulin prom inh cell count	GALR2 ag
Cn1nc(C(F)(F)F)c(C#N)c1N1CCN(c2ccc(F)cc2)CC1	10	0.8	-7	110	i	110	-1.9
Cc1nnc(SCC(=O)N(CC(C)C)c2c(N)n(CC(C)C)c(=O)[nH]c2=O)n1-c1ccccc1	-3	0.99	43	106	i	61	.
N#CCC(=O)N/N=C/c1coc2ccccc2c1=O	.	1	.	100	i	.	.

(further entries)
Second line of a record: PKD1 kinase inh	HSV augment primary fold	Insulin prom inh	RGS16-Gao	HSV augment	Insulin prom inh cell count	GALR2 ag
Cc1ccc(NC(=O)CC2SC3=NCCN3C2=O)cc1 (stereo not given)
    -1	0.85	-27	161	i	115	-3.0
COC(=O)c1ccc(/C=N/N2C(C)CCCC2C)cc1 (stereo not given)
    -4	0.99	36	65	i	69	.
CC(C)CCC1(CCNC(=O)c2cccs2)CCOC(C)(C)C1 (stereo not given)
    .	0.96	.	106	i	.	.
COC(=O)C(CCSC)NC(=O)CNS(=O)(=O)c1ccc(Br)cc1 (stereo not given)
    -6	0.95	-64	98	i	71	0.1
CCOC(=O)C(=O)Nc1nc(-c2ccccc2)c(-c2ccccc2)o1
    -19	1	-21	70	i	64	0.3
COc1ccc(N2CCN(Cc3cc(=O)oc4cc(-c5ccccc5)c(O)cc34)CC2)cc1
    -4	0.78	45	104	i	177	-1.6
COc1ccc(N2CCN(C(=O)c3ccc(S(=O)(=O)N4CCOCC4)cc3)CC2)cc1
    -8	0.8	.	95	i	.	-0.7
Cc1cc2nnc(SCC(=O)N(C)C3CCS(=O)(=O)C3)n2c2ccccc12 (stereo not given)
    3	0.94	.	98	i	.	.
O=C(Nn1cnc2ccccc2c1=O)c1ccc(F)cc1Cl
    -4	1.1	.	101	i	.	-0.3
CCc1ccc(N2C(=O)Cc3c2nc(N)c(C#N)c3N)cc1
    -5	0.93	16	100	i	70	-2.7
CCOc1ccc2c(c1)cc(CN(C(=O)CC)C1CCCCC1)c1nnnn12
    5	0.9	.	97	i	.	-0.6
O=C(Nc1ccc2c(c1)OCO2)N1CCOCC1
    -4	0.66	-9	125	i	78	-2.3
CCOC(=O)C1CCN(C(=O)C2CC(=O)N(c3ccc(C)cc3)C2)CC1 (stereo not given)
    -10	1	-100	92	i	131	-0.3
CN(c1ccccc1)S(=O)(=O)c1cccc(NC(=O)C2CC(=O)N(Cc3ccccc3)C2)c1 (stereo not given)
    .	0.95	.	102	i	.	.
CC(C)c1ccc(NC(=O)NC2CC3CCC(C2)N3Cc2cccs2)cc1 (stereo not given)
    10	0.89	.	107	i	.	.
COc1ccc(-c2[nH]c(-c3ccc(C)cc3)nc2SCC(=O)NCc2ccco2)cc1OC
    14	1.1	.	106	i	.	-2.9
COc1ccc(C2=NOC(COc3ccc([N+](=O)[O-])cc3)C2)cc1 (stereo not given)
    .	1	.	99	i	.	.
Cc1ccc(-c2noc(C3CCCCC3)n2)cc1
    -6	1	-30	97	i	237	-3.2
CCCCc1ccc(-c2csc(/C(C#N)=C/c3ccco3)n2)cc1
    -3	1.4	-13	97	i	95	0.2
Cc1c(Cl)cccc1NC(=O)COC(=O)CCc1nc2ccccc2n1-c1ccccc1
    -1	0.93	.	100	i	.	-0.8
CC(=O)Nc1ccc(NC(=O)Cn2c(CC(=O)N3CCCC3)nc3ccccc32)cc1
    -8	0.97	.	112	i	.	-0.2
CC(=O)Nc1nc2ccccc2n1Cc1ccc(Cl)cc1
    .	0.95	.	92	i	.	.
CC(C)c1ccc(NC2(C#N)C(=O)Nc3ccccc32)cc1 (stereo not given)
    -6	.	-81	102	.	91	-1.1
CCO/C(C)=C1\C(=O)N(CC)c2ccccc21
    10	0.94	-13	93	i	74	-0.4
CC(=O)C1C(c2ccco2)c2c(noc2C)CC1(C)O (stereo not given)
    -2	0.95	4	97	i	263	-0.9
CC(NCC1(N2CCOCC2)CCCCC1)C(=O)N1CCc2ccccc21 (stereo not given)
    -3	0.88	.	120	i	.	-1.8
Cc1nn2cc(-c3cccc(Cl)c3)cnc2c1Cl
    -2	0.93	.	102	i	.	.
CC(=O)NC(C)C(=O)OCC(=O)Nc1ccc(Br)cc1 (stereo not given)
    -6	0.88	89*	98	i	29*	-0.6
Cc1ccc(N(C(=O)Nc2ccccc2)C2=NCC(C)S2)cc1 (stereo not given)
    -9	1.1	63	101	i	115	-1.1
CC(=O)NCCC(=O)NCc1ccc(F)cc1
    -4	0.96	26	126	i	137	-3.2
CC(=O)N1C(c2ccccc2)CC(=O)OC1c1ccc2c(c1)OCO2 (stereo not given)
    -8	1	28	117	i	115	-2.5
